Bioassay records (PubChem BioAssay)
Beta cell apopt = blocks beta cell apoptosis; INS-1E cytokine-induced death, ATP luminescence, 48 h; percent of positive-control rescue, neutral wells zero; 0.8% of 300,000 active; protection from apoptosis, % (test concentration not listed); AID 435005;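 active = all replicates at 75% or more, or half of them and the mean; inconclusive = half reach 75% but not the mean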;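 note: 0% = cytokine-treated negative control wells and 100% = positive control rescue; higher means more ATP so stronger rescue from cytokine killing; wells of about 40 µL received 100 nL stock; the first replicate is given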
rRNA inh HTS = selective bacterial rRNA inhibition in E. coli; E. coli WT GFP vs humanized-ribosome RFP mutants, fluorescence, 24 h; hits give low values; DMSO median 0, no signal -100; GFP signal change (wild-type ribosome), % (test concentration not listed); 1.6% of 350,000 active; AID 720706;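 active = significant combined selectivity score with lowered wild-type GFP, culture density cut under 30%, mutant RFP and density less affected; inactive = any of these conditions unmet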; note: one replicate is shown; some compounds called inactive have numbers as strong as hits
LANA-H2B inh = blocks KSHV LANA binding to histone H2A/H2B; cell-free LANA-H2A/H2B peptide, fluorescence polarization; inhibition, % (concentration not given with the values); 0.6% of 320,000 active; Q9QR71; AID 2629; in the data active = inhibition mostly above about 10%, no sharp cut-off; inactive = mostly below about 6.7%;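 note: stock transfer was 7.5 nL into about 10 µL; 0% = median of vehicle wells and 100% = median of positive control wells; one replicate is shown; the record names a cut of 25% in any replicate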
T cruzi inh = T. cruzi replication inhibition. T. cruzi beta-gal in NIH3T3, luminescence, 90 h. inhibition, % (test concentration not listed). 1.4% of 300,000 active;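 active = mean inhibition across valid replicates above about 55%, limit read from the data; inconclusive = mean below that limit but half or more replicates reach it; inactive = mean below it, under half of replicates reach it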;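 note: signal also drops with host cell toxicity which is not excluded here; 0% = plate median of DMSO wells and 100% = zero luminescence signal; higher percent means less beta-gal luminescence so fewer parasites; stock transfer was 50 nL into about 50 µL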
ALR inh = inhibitors of human sulfhydryl oxidase ALR; inhibition, % (no concentration beside the values); AID 485317; P55789; purified ALR, DTT oxidation, H2O2 HRP-luminol luminescence; 3.8% of 290,000 active;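 active = mean and each replicate at 75% or more; inconclusive = only one of the two met; inactive = neither met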;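 note: stock transfer was 7.5 nL into about 7.5 µL; 0% = neutral wells and 100% = wells with inactivated enzyme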
Target sequence (P55789 whole entry, looked up): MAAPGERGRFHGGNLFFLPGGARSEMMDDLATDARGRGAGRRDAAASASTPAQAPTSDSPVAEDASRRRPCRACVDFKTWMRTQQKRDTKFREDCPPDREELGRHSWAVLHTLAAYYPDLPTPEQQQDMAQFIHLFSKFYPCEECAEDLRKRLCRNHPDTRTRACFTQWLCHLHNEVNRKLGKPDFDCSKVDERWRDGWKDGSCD
B2AR ag = activates human beta-2 adrenergic receptor causing internalization; P07550; Am2.2-beta2AR cells, FAP receptor internalization, flow cytometry; reference of the scale not given here; response, % (concentration not given with the values); 0.43% of 340,000 active;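 active = response above a set limit, near 3 SD of response in nonfluorescent compounds, cut at about 42% in these data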;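 note: stock transfer was 100 nL into about 11 µL; a reference agonist was the positive control; negative values mostly stem from fluorescent compounds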
Target sequence (P07550 whole entry, looked up): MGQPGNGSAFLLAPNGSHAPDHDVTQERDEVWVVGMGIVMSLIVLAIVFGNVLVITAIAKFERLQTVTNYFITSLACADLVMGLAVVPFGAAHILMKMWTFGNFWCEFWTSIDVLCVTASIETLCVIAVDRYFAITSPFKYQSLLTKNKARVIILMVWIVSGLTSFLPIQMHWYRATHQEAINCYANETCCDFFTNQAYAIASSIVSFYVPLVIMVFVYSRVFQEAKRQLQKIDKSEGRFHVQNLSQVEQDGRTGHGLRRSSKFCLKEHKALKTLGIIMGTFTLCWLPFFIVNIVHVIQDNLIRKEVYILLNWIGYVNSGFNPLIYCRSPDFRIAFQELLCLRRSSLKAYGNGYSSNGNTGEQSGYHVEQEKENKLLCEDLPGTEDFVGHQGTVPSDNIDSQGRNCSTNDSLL
Calb FLC = affects C. albicans growth with fluconazole; growth inhibition, % (test concentration not listed); C. albicans CaCi-2 (fluconazole-resistant clinical isolate) + fluconazole, Alamar Blue growth, 48 h; 0.57% of 300,000 active; AID 1979;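 active = most replicates above 75%; inconclusive = exactly half above 75%; inactive = most below 75%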;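 note: all wells also contain fluconazole at 8 µg/ml as a sub-toxic cotreatment; 0% = median of DMSO wells and 100% = median of geldanamycin control wells; wells of about 8 µL received 7.5 nL stock; the first replicate is given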
A1 inh = inhibitors of the anti-apoptotic protein A1, read as caspase activation | MEF A1-2A-BIM cells, Caspase-Glo 3/7 luminescence, 3 h; percent of clofoctol response, vehicle zero | caspase activation, % (test concentration not listed) | 0.066% of 330,000 active;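 active = over half of replicate activation scores above 10%, or exactly half above 10 with the replicate mean above 10; inconclusive = replicate mean below 10 yet half the replicates above 10; inactive = over half of replicates below 10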;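 note: wells of about 30 µL received 50 nL stock; many hits fall short of the cut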
rRNA inh HTS OD600 = also measured in rRNA inh HTS; calls as there; OD600 change, %; measured here: OD600 growth;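 optical density of the mix in the first replicate; 0 = DMSO median and -100 = no signal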
rRNA inh HTS RFP = also measured in rRNA inh HTS; calls as there; RFP signal change, %; measured here: RFP humanized mutant strains;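 first replicate; 0 = DMSO median and -100 = no signal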
The depositor's hits bear a star; ? = inconclusive; · = no result given. Only part of the results is shown. The share of hits here may be higher or lower than overall.

Screens in order – Beta cell apopt, rRNA inh HTS, rRNA inh HTS OD600, rRNA inh HTS RFP, LANA-H2B inh, T cruzi inh, ALR inh, B2AR ag, Calb FLC, A1 inh
1) CCC1=C(OC(=O)N(CC)CC)N2C(=O)OC(=NCc3ccccc3)[C@]2(C)[C@H]2C1=CC[C@H]1C(=O)N(c3ccccc3)C(=O)[C@H]12
→ -8, 10, 0, -2.8, 7.2, -8, -14, 3, 15, -0.4
2) COc1cc(/C=C(\C#N)C(=O)NC2CCCCC2)ccc1OCc1ccc(C(=O)O)cc1
→ 2, -36, -50, -6.2, 3.0, 2, 5, 5, -14, 0.8
3) O=c1[nH]c(CSc2nc3ccccc3o2)nc2c1cnn2-c1ccccc1
→ 1, ·, ·, ·, 4.5, -5, 14, 8, -1, -0.8
4) COc1ccc(NC(=O)CN(C)Cc2c(F)cccc2Cl)cc1S(=O)(=O)N1CCCCC1
→ 3, -8, -9, -2.9, -6.5, 32, -40, 6, -11, 0.4
5) O=C(CCl)N(c1ccccc1)C1CCS(=O)(=O)C1 (stereo unspecified)
→ -4, ·, ·, ·, 1.4, -2, ·, 2, -4, 1.0
6) O=C1CCN(Cc2ccccc2)S(=O)(=O)c2ccc(F)cc21
→ -4, -17, -11, -8.7, 2.3, ·, 3, -1, ·, 0.7
7) CSc1cccc(NC(=O)CCCOc2ccccc2)c1
→ 1, ·, ·, ·, -0.3, 7, -12, 4, 0, 0.4
8) CC[C@@H](C)[C@H](NC(=O)C1CCN(C(=O)[C@@H](NS(=O)(=O)c2ccc(C)cc2)C(C)C)CC1)C(=O)O
→ -3, ·, ·, ·, 1.4, -9, -3, 4, 0, 0.5
9) C=CCOc1ccc(C2C(C#N)=C(N)N(Nc3ccccc3)C3=C2C(=O)CCC3)cc1OC (stereo unspecified)
→ 1, ·, ·, ·, -6.7, 8, 4, -12, 5, -0.1
10) COc1ccc(NC(=O)c2ccc(NC(=O)C3CC3)cc2)cc1
→ 2, 2, -10, -1.5, 1.6, -8, -8, 10, -16, -0.8
11) CSCCC(NC(=O)c1ccccc1Br)C(=O)N1CCN(C(C)=O)CC1 (stereo unspecified)
→ -3, 5, 7, 0.2, 1.0, ·, -2, -12, ·, 0.6
12) COc1ccc(Br)c(OC)c1C(=O)NC(=O)Nc1nc(C)cc(C)n1
→ ·, 9, 8, 0.2, -4.0, ·, 1, -2, 9, 0.6
13) O=C(COC(=O)c1cc(S(=O)(=O)N2CCCCC2)ccc1Cl)NC1CCS(=O)(=O)C1 (stereo unspecified)
→ 0, 4, 8, 0.8, -3.4, ·, -1, -9, ·, -0.4
14) Cn1c(=O)c2cc(S(=O)(=O)NCCC(=O)NC3CCCCCCC3)ccc2n(C)c1=O
→ -2, -4, -12, -8.4, -9.6, -24, -4, 1, 0, 0.5
15) CN1C(=O)c2ccc(N3CCCC3)cc2C1=O
→ -3, ·, ·, ·, -0.5, -4, -3, -13, 11, 1.0
16) Cc1ccc(S(=O)(=O)NC(=S)NC2CCCCC2)cc1
→ -5, 1, -1, -1.6, 0.4, -12, ·, 0, 2, 0.8
17) CCN(CC)S(=O)(=O)c1ccc(OC)c(NS(=O)(=O)c2ccc(F)cc2)c1
→ -4, ·, ·, ·, 11, -5, -25, -1, -2, 0.7
18) Cc1ccc(N(Cc2ccc(C(=O)NC3CCCCC3)cc2)S(C)(=O)=O)cc1C
→ -3, ·, ·, ·, -4.1, -2, -5, -10, -1, 0.6
19) CCOC(=O)C(c1ccccc1)C(Nc1ccc(F)cc1)c1ccccn1 (stereo unspecified)
→ 6, 20, 1, 60, 21*, -19, ·, 9, 19, -0.3
20) COc1ccccc1NS(=O)(=O)c1cc(NC(=O)c2ccc(=O)[nH]c2)ccc1N1CCOCC1
→ ·, ·, ·, ·, 7.4, -19, 2, -3, -18, 0.1
21) Cn1c(=O)oc2cc(S(=O)(=O)NCCC(=O)N3CCN(c4ccccc4F)CC3)ccc21
→ 3, 1, -1, 3.2, 1.4, -9, -4, -6, -1, 0.4
22) C=CCc1cc(OC)ccc1OCCOCCN1CCc2ccccc2C1
→ 10, -23, -29, 6.4, -7.7, 44, -3, 1, -8, -0.2
23) O=C(Cn1c(=O)n(-c2ccccc2)c(=O)c2sccc21)N1CCCC1
→ -3, ·, ·, ·, 3.1, -9, 1, -7, -5, -0.4
24) COc1ccc([N+](=O)[O-])cc1NC(=O)C(C)OC(=O)/C=C/c1ccco1 (stereo unspecified)
→ -7, ·, ·, ·, -5.2, -4, -4, -8, -3, 0.8
25) CCC1(C)CC(CCNS(=O)(=O)c2ccc(C)cc2)(c2ccc(C)cc2)CCO1 (stereo unspecified)
→ 1, ·, ·, ·, -2.9, 31, -1, 7, -3, -0.6
26) CCN(C(=O)c1ccco1)c1nnc(-c2cccnc2)s1
→ -3, -3, -9, -2.8, -2.9, 4, -1, -23, -4, -3.3
27) Fc1ccc2c(c1)C(c1ccncc1)=NNC(c1ccc(Br)cc1)=N2
→ 0, ·, ·, ·, 3.4, 44, -9, -4, -1, 1.0
28) O=C(O)CCCn1c(=O)c2cccn2c2ccc(F)cc21
→ 1, -1, -6, -1.3, 3.9, 1, 6, 1, 1, -1.0
29) CSCCC(NC(=O)c1ccccc1)C(=O)N/N=C(\C)c1ccccc1 (stereo unspecified)
→ ·, 7, 6, -2.8, 3.5, -2, -10, 3, -29, 0.4
30) CCOC(=O)/C(C#N)=C/Nc1ccccc1NS(=O)(=O)c1ccc(C)c(C)c1
→ 1, 9, 3, 0.8, -0.1, -5, ·, 0, -1, 1.1
31) CCOc1ccc2oc(C(=O)N(C)CC(=O)Nc3ccc(OCC)c(OCC)c3)c(C)c2c1
→ 1, -28*, -23*, 1.4*, 5.5, 6, -5, -10, 1, 1.7
32) COc1ccc(CCNC(=O)c2cc3cccc(OC)c3oc2=O)cc1OC
→ -19, 7, 6, 0.0, 1.0, -11, -5, -3, -5, -0.5
33) O=C(Nc1ccccc1)c1sc2cc(C(F)(F)F)cnc2c1-c1cccs1
→ 13, ·, ·, ·, -3.3, 23, -4, -9, -7, -0.5
34) NC(=O)c1ccc(NC(=O)c2cccc3c2OCCCO3)cc1
→ ·, -1, 4, -0.3, 1.8, -7, -1, -2, -1, -0.4
35) O=C(C1CCN(S(=O)(=O)c2cc(Cl)ccc2Cl)CC1)N1CCCC1
→ -1, -3, -7, -0.4, -3.0, 4, -7, -7, -2, 0.7
36) CC1(C)C(=O)Nc2ccccc2N1C(=O)COC(=O)COc1ccc(C#N)cc1
→ -6, 2, 1, -3.0, 9.7, -3, -8, 4, 64, -1.3
37) Cc1c(C(=O)NCc2cccnc2)sc2nc(-c3ccc(F)cc3)cn12
→ 6, -15, -34, 1.6, 3.2, 1, -4, 6, 9, -4.1
38) COc1cccc(NC(=O)C2CCN(S(=O)(=O)c3ccc4c(c3)CC(C)N4C(C)=O)CC2)c1 (stereo unspecified)
→ 5, -12, -9, -1.6, 1.3, -1, -2, -1, 1, 0.1
39) COc1ccc(C2C3=C(CCCC3=O)Nc3ccc4ncccc4c32)cc1OC (stereo unspecified)
→ -4, -12, -5, -4.0, -2.1, 26, ·, 2, 4, 0.0
40) CCOC(=O)c1c(NC(=O)COC(=O)c2nc(Cl)ccc2Cl)sc(C(=O)N(C)C)c1C
→ 3, -1, 9, -2.4, -1.0, -7, 6, 1, -5, 1.0
41) Cc1ccc(-c2ccc3nnc(SCC(=O)NCC4CCCO4)n3n2)cc1 (stereo unspecified)
→ -3, 11, 8, -2.3, 0.0, -15, -20, -5, -10, 0.0
42) O=C(NCc1cccnc1)c1ccc(COc2cccc3ccccc23)o1
→ -1, ·, ·, ·, -0.3, 10, -10, 10, -1, 0.0
43) O=C(NN1C(=O)c2ccccc2C1=O)C1C2CCCCC21 (stereo unspecified)
→ -6, 21, 11, 2.4, 1.5, -17, -2, 0, 13, 0.6
44) COc1ccc(C2=NNC(c3cccnc3)=Nc3ccccc32)cc1
→ -4, 5, 5, -3.3, 7.7, 13, 4, -2, -30, 0.1
45) COc1cc2ccccc2cc1C(=O)NC(=S)Nc1cccc(C(=O)O)c1C
→ -7, -7, -2, 5.0, 1.0, 13, 10, -4, 17, -0.8
46) N#Cc1nc(-c2cccs2)oc1NCc1ccc(Cl)cc1
→ -3, ·, ·, ·, 1.8, 30, 26, -3, 18, 0.0
47) COc1ccc(OC)c(NC(=O)c2cc(-c3cc(C)ccc3O)n[nH]2)c1
→ 16, 1, -2, -0.1, -1.3, -17, -21, -6, -26, ?
48) Cc1ccc(-n2cc3c(-c4cccc(Br)c4)nnc(C)c3n2)cc1
→ 2, ·, ·, ·, 0.3, 39, 0, -1, 26, 1.7
49) COCCNC(=O)CSc1nc2ccccc2c2nc(C)nn12
→ 7, ·, ·, ·, 5.1, -4, ·, -2, -2, 0.7
50) O=C(c1cc2nc(-c3ccccc3)cc(C(F)(F)F)n2n1)N1CCN2CCCC2C1 (stereo unspecified)
→ 1, -9, -18, -0.1, 5.3, 16, -8, 3, -7, 0.6
51) CC(=O)Nc1ccc(N/C=C/C(=O)c2ccc(Br)cc2)cc1
→ 0, ·, ·, ·, -4.2, 11, -5, 1, -8, 2.8
52) Cc1ccc(CNC(=O)CN(C2CCCCC2)S(C)(=O)=O)cc1
→ -4, ·, ·, ·, -1.1, 5, -4, 7, -1, 1.5
53) CC(C)c1ccc(N(CC(=O)NCC2CCCO2)C(=O)CCC(=O)Nc2nccs2)cc1 (stereo unspecified)
→ 4, 7, 6, -0.6, -0.6, -1, 3, 0, 2, 0.2
54) Cc1ccc2nc(SC(C(=O)Nc3ccc(F)cc3)c3ccccc3)[nH]c2c1 (stereo unspecified)
→ 5, ·, ·, ·, 1.8, -10, 2, 3, 2, 0.2
55) O=c1cc(O)c2sc(Nc3ccc(F)c(Cl)c3)nc2[nH]1
→ -2, 5, -2, 2.8, 3.0, -8, 29, 4, 0, 0.0
56) CC1=CC(C)(C(Cl)Cl)C(C)=CC1=O (stereo unspecified)
→ -3, ·, ·, ·, -2.3, -11, -6, 3, -8, 1.0
57) CCN(CC(=O)Nc1cc(Cl)ccc1C)C(=O)CSCc1ccc(C)cc1
→ -5, -3, 3, 1.1, 1.4, 8, -7, 6, -6, -0.6
58) CC(C)(C)n1nnnc1C(c1cccc(C(F)(F)F)c1)N1CCC(O)CC1 (stereo unspecified)
→ -3, 2, 2, -1.0, 2.7, 15, ·, -5, -7, -0.9
59) Cc1cc(N2CCN(C(=O)c3cccs3)CC2)c(F)cc1[N+](=O)[O-]
→ 24, 4, 5, -1.8, 10.0, 13, ·, 2, 2, -1.7
